PINK1 modulator – A Quantitative High throughput Screen to Identify Chemical Modulators of PINK1 Expression. PINK1 immunofluorescence, high-content cytometry, 24 h. Potency, µM (doses to about 76.6 µM), for inactives: at the top dose activation (PINK1 increase), hits mostly activators. 410,000 tested, 0.2% active. AID 624263, 2012; active = well fitted activation curve with a large enough effect; inconclusive = small, poorly fitted or top-dose-only effect; inactive = flat fitted curve, though single readings scatter; cell line not stated here;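 note: potency is the fitted concentration of half-maximal effect; % of control where 0% means no effect; nearly all actives have a fitted effect of over 65% in size; a mitochondrial uncoupler was the plate control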
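PINK1 protein, normally rapidly degraded, was detected by immunofluorescence after 24 hour compound treatment of a stable cell line. Titration data (5 concentrations) came from laser-scanning cytometry, with CCCP-treated wells as controls.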
Six1-Eya2 inh – qHTS Assay for Inhibitors of the Six1/Eya2 Interaction. Homeobox protein SIX1 (Homo sapiens) + Protein phosphatase EYA2 (Homo sapiens), …. AlphaScreen GST-Six1/His-Eya2 binding, biochemical; hits give low values; control for the full effect not named in the record. activity change, % (test concentration not listed). 360,000 tested, 0.56% active. AID 651725, 2012; in the data active = activity change below about -65%; inconclusive = about -30% to -65%; inactive = above about -30%; note: % is set by controls: 0 for no effect and ±100 for the full control effect; compound concentration not given in the record
Target sequence (O00167 whole entry, looked up): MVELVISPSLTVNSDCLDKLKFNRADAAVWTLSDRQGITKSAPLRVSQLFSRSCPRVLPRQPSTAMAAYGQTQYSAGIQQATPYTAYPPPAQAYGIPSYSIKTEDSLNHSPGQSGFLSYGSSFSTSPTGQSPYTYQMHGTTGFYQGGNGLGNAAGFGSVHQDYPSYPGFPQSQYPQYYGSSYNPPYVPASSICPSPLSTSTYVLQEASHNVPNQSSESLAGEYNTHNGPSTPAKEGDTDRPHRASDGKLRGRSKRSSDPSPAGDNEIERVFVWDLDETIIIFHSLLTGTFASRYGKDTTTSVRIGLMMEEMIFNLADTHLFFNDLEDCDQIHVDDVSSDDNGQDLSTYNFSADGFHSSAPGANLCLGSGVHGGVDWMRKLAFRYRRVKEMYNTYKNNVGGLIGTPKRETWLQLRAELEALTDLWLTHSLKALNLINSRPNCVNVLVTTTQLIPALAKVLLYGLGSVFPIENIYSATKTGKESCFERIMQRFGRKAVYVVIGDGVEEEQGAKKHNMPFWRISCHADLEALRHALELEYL
Target sequence (Q15475 whole entry, looked up): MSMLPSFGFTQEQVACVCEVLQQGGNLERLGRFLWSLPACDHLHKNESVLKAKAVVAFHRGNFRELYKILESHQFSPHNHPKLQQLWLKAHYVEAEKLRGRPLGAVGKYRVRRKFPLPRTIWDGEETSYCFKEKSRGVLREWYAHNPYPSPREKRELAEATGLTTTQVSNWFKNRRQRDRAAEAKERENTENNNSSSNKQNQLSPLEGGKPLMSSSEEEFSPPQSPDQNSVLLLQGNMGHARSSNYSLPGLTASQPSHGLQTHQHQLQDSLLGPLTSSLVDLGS
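Homogeneous AlphaScreen proximity assay pairing GST-Six1 with His-tagged Eya2 (added as 5X mix: 250 nM and 500 nM) in 50 mM Tris pH 8.0, 300 mM NaCl, 1 mM TCEP. Glutathione donor and nickel acceptor beads; 1 h, 37 °C, dark.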
TRPML1 agonist – qHTS for Agonists of the Human Mucolipin Transient Receptor Potential 1 (TRPML1); TRPML1-expressing cells, Ca2+ dye fluorescence, FDSS; host cell line not named in the record; reference of the full effect not given here; AID 624414, 2012; activation, % (test concentration not listed); 410,000 tested, 0.12% active; in the data active = activation above about 50%; inconclusive = about 30% to 50%; inactive = below about 30%; note: 0% is about no effect; the text of the record puts the active cut at 80%
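Calcium fluorescence on an FDSS kinetic reader gave the read-out. Tet-induced TRPML1-DL cells were plated overnight, dye-loaded (Ca8 with quencher, 45-90 min, room temperature, dark), then read 110 s after compound addition, and again 110 s after 4uM final 54-4 (EC80).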
D2 potentiator – Beta-Arrestin HTS for Positive Allosteric Modulators of the Human D2 Dopamine Receptor: Potentiators. D(2) dopamine receptor (Homo sapiens), P14416. DiscoveRx D2 beta-arrestin cells, luminescence, 90 min; 100% = 57 uM dopamine signal. potentiation, % (no concentration beside the values). 360,000 tested, 0.23% active; active = potentiation of 50% or more; inconclusive = 30% to 50%; inactive = 30% or less;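 note: compound concentration not given in the record; tested on top of an EC20 dose of dopamine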
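PathHunter beta-arrestin assay in DiscoveRx D2 cells. Compounds were added with an EC20 of dopamine (50 nM final) for 90 min at 37 deg C. Luminescence was read 1 h after detection reagent, with 57 uM dopamine as the EC100 control.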
D2 agonist – Beta-Arrestin HTS for Positive Allosteric Modulators of the Human D2 Dopamine Receptor: Agonists; DiscoveRx PathHunter D2 beta-arrestin, luminescence, 90 min; 100% = 57 uM dopamine signal; activation, % (test concentration not listed); 360,000 tested, 0.084% active; in the data active = activation above about 40%; inconclusive = about 15% to 40%; inactive = below about 15%; note: compound concentration not given in the record; the text of the record calls up to 30% inactive
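DiscoveRx PathHunter D2 beta-arrestin cells (2,100/well) attached overnight, then compound-stimulated 90 min at 37 C in HBSS/10 mM HEPES/0.1% Tween-20 buffer; beta-galactosidase complementation read by luminescence after 1 h at ambient temperature. Dopamine 57 uM final (EC100) as control.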
CtBP-E1A blk – qHTS Assay for Inhibitors of the CtBP/E1A Interaction; activity change, % (no concentration beside the values); 340,000 tested, 0.49% active; AID 651724, 2012; AlphaScreen GST-E1A/His-CtBP binding, 1536-well; hits give low values; control for the full effect not named in the record; CtBP / adenovirus E1A interaction (AlphaScreen); in the data active means activity change below about -65%; inconclusive means about -30% to -65%; inactive means above about -30%; note: % is set by controls: 0 for no effect and ±100 for the full control effect; compound concentration not given in the record
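Protein mix (5X: 125 nM each GST-E1A, His-CtBP) was incubated with pinned compound 2 h at 37 deg C in dark, in 50 mM Tris pH 8.0 buffer with 300 mM NaCl. Glutathione donor and nickel acceptor beads followed; AlphaScreen signal read after 1 h.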
* hit, by the source's call; ? = inconclusive; · = not tested or not shown; & = joins results of further samples; [ ] = another dose, or the depositor's remark.

Value order: PINK1 modulator | Six1-Eya2 inh | TRPML1 agonist | D2 potentiator | D2 agonist | CtBP-E1A blk
> O=C(NCNC(=O)c1ccccc1)c1ccccc1
    2.1%[38.3 µM] | 3 | 0.1 | -3 | -0.3 | 5
> C[C@@H]1CN([C@@H](C)CO)C(=O)c2cccc(NS(C)(=O)=O)c2O[C@H]1CN(C)Cc1ccc(C(=O)O)cc1
    0.3% | 4 | -0.2 | -3 | -1.4 | 6
> COC(=O)c1ccc(NC(=O)CN(Cc2ccc(Cl)cc2)S(C)(=O)=O)cc1
    -2.0%[38.3 µM] | -1 | 0.7 | -15 | -2.2 | -1
> CNc1c(N)c(=O)oc2ccccc12
    0.4% | 7 | -0.1 | -7 | -3.2 | -5
> CC(C)Oc1ccc(S(=O)(=O)N2CCOCC2)cc1NC(=O)c1nn(C)c(=O)c2ccccc12
    3.2% | -1 | -0.3 | 3 | -1.8 | ·
> O=C(Nc1ccnn1C1CCN(CC2CC=CCC2)CC1)c1ccccc1 (stereo unspecified)
    2.7% | -19 | -0.7 | -16 | 0.3 | ·
> COc1cccc(/C=C/C(=O)OCC(=O)N2CCCC2)c1OC
    2.7% | 10 | 0.8 | -7 | -2.5 | -11
> O=c1c(CN2CCN(Cc3ccccc3F)C(CCO)C2)coc2ccccc12 (stereo unspecified)
    0.4% | -3 | -0.4 | -11 | 3.3 | 8
> CCN(CC)CCn1c2c(c(SCC(=O)Nc3ccc4c(c3)OCCO4)nc1=O)CCCC2
    -1.4% | -13 | 0.7 | -22 | -3.3 | 3
> O=c1c([N+](=O)[O-])c[nH]c2ccccc12
    3.5% | 1 | -0.7 | -7 | -2.0 | 0
> COC(=O)CSc1nnc(CNS(=O)(=O)c2ccc(Br)cc2)n1C
    1.4% | 1 | 1.3 | -8 | 2.2 | 5
> CCOc1ccc(C(=O)NC(C(=O)NCc2ccccc2OC)C(C)C)cc1 (stereo unspecified)
    0.7% | 1 | -0.5 | 0 | -4.0 | -2
> O=C(NCc1cc(Cl)cc(Cl)c1)c1ccc2nc(COCCO)[nH]c2c1
    0.5% | ? | -0.2 | -4 | -4.6 | -11
> O=C(COC(=O)c1cccnc1SC(F)F)NC1CC1
    -0.4% | -1 | 0.1 | -13 | -3.1 | ·
> COc1ccccc1NC(=O)CSc1nnc(Cn2c(=O)sc3ccccc32)n1C
    2.4% | 0 | 0.8 | -7 | -1.2 | -24
> COc1ccc(-c2nc3c(C)cc(Br)cn3c2Cc2cccc(F)c2)cc1OC
    2.1% | -4 | -0.4 | 1 | -4.3 | 1
> CCOC(=O)CSC1=Nc2ccccc2C2=NC(CC(=O)NCc3ccccc3)C(=O)N12 (stereo unspecified)
    -3.1% | 0 | 1.4 | -11 | -1.4 | 2
> Cc1ccc(-c2cccc([C@H]3[C@@H]4C=CC[C@@H](C)[C@@H]4C(=O)N3Cc3ccccc3)c2)cc1
    ? | -9 | -0.2 | -10 | -2.7 | -1
> O=C(CSc1n[nH]c(-c2ccncc2)n1)Nc1ccccc1Cl
    -2.9% | -2 | 2.0 | -13 | 2.9 | 3
> O=S(=O)(c1cccs1)N1CN(C2CCCC2)c2nc3ccccc3nc21
    2.3% | 9 | 3.2 | -1 | -1.3 | 0
> Cc1cc(C(=O)OC(C(=O)Nc2ccc(C)c(Cl)c2)c2ccccc2)c(C)o1 (stereo unspecified)
    9.2% | 12 | 0.1 | -20 | -4.0 | 12
> COc1cc(/C=C2\SC(=Nc3ccccc3)N(Cc3ccco3)C2=O)ccc1OC(C)C(=O)O (stereo unspecified)
    3.2% | -4 | 0.8 | 1 | 0.2 | -14
> CCNC1CCS(=O)(=O)C1 (stereo unspecified)
    0.3% | -3 | 0.6 | -7 | -3.1 | -1
> CN1C(=S)SC2CS(=O)(=O)CC21C (stereo unspecified)
    1.2% | 2 | 0.5 | 1 | 0.3 | 0
> Cc1c(OCC(=O)NCCN2CCOCC2)ccc2c(-c3ccccc3)cc(=O)oc12
    -0.9% | 4 | 0.2 | 3 | -4.4 | -7
> Cc1nc(NCC2CCCO2)c2nnn(Cc3ccccc3)c2n1 (stereo unspecified)
    -1.6%[38.3 µM] | -1 | 0.2 | -9 | -1.1 | 2
> CC(C)CC(=O)Nc1ccc(C(=O)Cn2c(=O)oc3ccccc32)cc1
    4.7% | 4 | 0.8 | -7 | -3.5 | ·
> COc1ccc(C2c3[nH]c4ccccc4c3CCN2C(=O)c2ccc(=O)n(C)n2)c(F)c1 (stereo unspecified)
    7.6% | -5 | 2.7 | -6 | -2.3 | 0
> CCCCC(CC)C(=O)N1CCN(C(=O)c2ccco2)CC1 (stereo unspecified)
    0.1% | 5 | 0.8 | -47 | -4.1 | ·
> COc1ccc(CNC(=O)N2CCN(c3ccccc3OC)CC2)cc1
    -0.1% | -1 | -0.8 | -6 | -1.0 | 11
> Cc1nc(C(=O)Nc2ccccc2)sc1C(=O)Nc1ccccc1
    0.9% | 5 | 0.3 | -6 | 2.8 | 0
> COCCCNC(=O)c1ccc([N+](=O)[O-])c(Cl)c1
    -1.4% | 2 | 0.2 | -18 | -2.5 | 8
> CSc1c(C#N)c(N)nc2sc(C(=O)c3ccc(Cl)c(Cl)c3)c(N)c12
    13% | 4 | 2.2 | -9 | -3.3 | 8
> CC1=C(C(=O)N2CCOCC2)C(c2cc(C)ccc2C)NC(=S)N1 (stereo unspecified)
    -1.0% | 5 | 2.3 | -2 | 1.5 | 5
> CCCCNC(=S)NNC(=O)c1cc(C2CC2)nc2ccccc12
    3.1% | -6 | 0.3 | -54 | -18 | 9
> Cc1cc(C)c(S(=O)(=O)N2CCCC(C(=O)NC3CCCC3)C2)c(C)c1 (stereo unspecified)
    1.3% | 4 | 0.2 | 5 | 0.5 | -18
> O=C1CCN(Cc2ccccc2)CCN1[C@H](CO)c1ccccc1
    -0.3% | 11 | 0.4&12&0.2 | -16 | -5.0 | -2
> Cc1cc(C)n(-c2ccc(C(=O)OCn3nnc4ccccc4c3=O)cc2)n1
    -0.4% | -20 | 2.3 | -34 | -0.7 | -13
> COc1cccc(COC(=O)C2CCN(C(=O)c3ccccc3C)CC2)c1OC
    0.7% | 10 | 0.3 | 9 | 0.0 | 1
> COC(=O)C1(Cc2cc(-c3cccnc3)no2)CCN(C(=O)OC(C)(C)C)CC1
    2.5% | 4 | 0.1 | -9 | -4.4 | ·

5 entries already listed, sorted by length of the SMILES, lowest first.
Value order: PINK1 modulator | Six1-Eya2 inh | TRPML1 agonist | D2 potentiator | D2 agonist | CtBP-E1A blk
> CCNC1CCS(=O)(=O)C1 (stereo unspecified)
    0.3% | -3 | 0.6 | -7 | -3.1 | -1
> COCCCNC(=O)c1ccc([N+](=O)[O-])c(Cl)c1
    -1.4% | 2 | 0.2 | -18 | -2.5 | 8
> CC1=C(C(=O)N2CCOCC2)C(c2cc(C)ccc2C)NC(=S)N1 (stereo unspecified)
    -1.0% | 5 | 2.3 | -2 | 1.5 | 5
> Cc1cc(C)c(S(=O)(=O)N2CCCC(C(=O)NC3CCCC3)C2)c(C)c1 (stereo unspecified)
    1.3% | 4 | 0.2 | 5 | 0.5 | -18
> COc1cc(/C=C2\SC(=Nc3ccccc3)N(Cc3ccco3)C2=O)ccc1OC(C)C(=O)O (stereo unspecified)
    3.2% | -4 | 0.8 | 1 | 0.2 | -14

The list continues.
Molecule | PINK1 modulator | Six1-Eya2 inh | TRPML1 agonist | D2 potentiator | D2 agonist | CtBP-E1A blk
OC(CN(Cc1ccccc1)Cc1ccccc1)c1ccccc1 (stereo unspecified) | ? | 14 | 1.5 | -8 | -5.6 | 31
CCOC(=O)c1c(S(=O)(=O)NCC(=O)Nc2ccc(F)cc2F)c(C)n(C)c1C | -0.8% | 1 | 0.7 | -6 | 4.8 | -6
CCCC1CCC(=NNC(=S)NCCc2ccccc2)CC1 (stereo unspecified) | 2.2% | ? | -1.2 | -8 | -2.5 | ?
N#C/C(=C\c1cn[nH]c1-c1ccccc1Br)C(=O)O | -0.7% | 14 | 3.6 | -2 | -3.6 | 7
CCc1cccc(NS(=O)(=O)c2ccc3c(c2)oc(=O)n3C)c1 | 0.1% | 11 | -0.1 | -8 | 2.1 | -3
CSc1nc(C)cc(SCCO)n1 | 0.0%[38.3 µM] | -5 | 1.0 | 3 | -1.0 | 0
CCc1noc(C)c1C(=O)NNC(=O)COc1cc(C)ccc1C | -0.2% | 2 | 0.8 | -3 | 0.3 | 6
O=C(OCC(=O)N1CCOCC1)c1ccc(O)cc1 | 0.3% | 2 | 0.5 | -2 | 5.0 | 3
CCOC(=O)CC1C(=O)NCCN1S(=O)(=O)c1ccc(Cl)c(Cl)c1 (stereo unspecified) | -0.4% | 16 | -0.4 | 9 | -2.7 | 2
CCCNC(=O)c1ccc(N2CCC3(CC2)CC(c2cccc(Br)c2)=NO3)c(NC(=O)c2ccco2)c1 | 6.1% | -11 | -0.1 | 0 | 3.5 | -4
Cc1onc(-c2ccccc2)c1C(=O)Nc1ccc(Cl)cn1 | 4.6% | -8 | 1.4 | -2 | -2.1 | -11
CCC(C)(C)n1nnnc1C(c1ccccn1)N1CCCCC1 (stereo unspecified) | -1.6% | 0 | -0.1 | -7 | -0.4 | -1
Cc1ccc(-n2c(SCC(=O)O)nc3sc4c(c3c2=O)CCCC4)cc1 | -1.2%&1.2% | -14 | -0.1&-0.5 | -1 | -2.0 | -14
CCOC(=O)N1CCN(C(=O)c2cccc(OC)c2OC)CC1 | 0.7% | 7 | 0.6 | -11 | -0.6 | 10
CNc1ccc(Oc2c(F)c(F)nc(F)c2F)cc1 | 2.9% | -2 | · | 0 | -7.1 | -3
CC1CCN(S(=O)(=O)c2ccc(C(=O)N3CCCCC3C(=O)O)cc2)CC1 (stereo unspecified) | -0.3% | 13 | 0.8 | -3 | 0.4 | -4
CC(=O)N1CCN(S(=O)(=O)c2ccc(C)c([N+](=O)[O-])c2)C1C(C)C (stereo unspecified) | -1.6% | 2 | -0.2 | 1 | 1.9 | 8
COC(=O)c1c(-c2ccc(C)cc2)csc1N | 3.4% | -13 | 2.7 | 0 | -2.9 | -24
CCOc1ccc(-c2nnc3ccc(SC)nn23)cc1 | 23%[38.3 µM] | -6 | -0.3 | -9 | -1.8 | -1
FC(F)(F)c1nc2nc(Cl)c(Cl)nc2[nH]1 | 0.7% | -3 | -0.8 | 9 | -1.4 | 2
Cc1ccc(S(=O)(=O)NCCc2ccncc2)cc1C | -0.4% | 3 | -0.8 | -4 | -2.4 | 4
Cc1ccc(CNC(=O)c2ccccc2NC(=O)CN2CCN(C)CC2)cc1 | -2.2% | 7 | 1.1 | -2 | -0.3 | -16
Cc1cccc(C(=O)OCC(=O)NC(=O)NCc2ccccc2)c1 | 1.9% | 3 | 6.4 | 1 | 5.5 | -12
C=CCNC(=O)C(=O)Nc1ccc2c(c1)N(S(=O)(=O)c1cccs1)CCC2 | 5.7% | -8 | -0.3 | 4 | 0.5 | 2
